# EPAC2 antag – Validation qHTS for antagonist of cAMP-regulated guanine nucleotide exchange factor 4 (EPAC2) | Potency, µM (top dose mostly 112 µM), without a hit: at the highest dose activity, negative = inhibition, usual class: inhibitors | EPAC2 Rap1B BODIPY-GDP exchange, fluorescence | Rap guanine nucleotide exchange factor 4 (Homo sapiens), Q8WZA2 | hit rate 1.7% among 16,000 | AID 1645886, 2021; active = well fitted inhibition curve with a large enough effect; inconclusive = small, poorly fitted or top-dose-only effect; inactive = no such curve, though single readings can be large or run the other way;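 note: 100% = activation by cAMP agonist control; nearly all actives have a fitted effect of over 40% in size; the record reuses the description of the EPAC1 agonist screen; inactives centre near -10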
# Target sequence (Q8WZA2 whole entry, looked up): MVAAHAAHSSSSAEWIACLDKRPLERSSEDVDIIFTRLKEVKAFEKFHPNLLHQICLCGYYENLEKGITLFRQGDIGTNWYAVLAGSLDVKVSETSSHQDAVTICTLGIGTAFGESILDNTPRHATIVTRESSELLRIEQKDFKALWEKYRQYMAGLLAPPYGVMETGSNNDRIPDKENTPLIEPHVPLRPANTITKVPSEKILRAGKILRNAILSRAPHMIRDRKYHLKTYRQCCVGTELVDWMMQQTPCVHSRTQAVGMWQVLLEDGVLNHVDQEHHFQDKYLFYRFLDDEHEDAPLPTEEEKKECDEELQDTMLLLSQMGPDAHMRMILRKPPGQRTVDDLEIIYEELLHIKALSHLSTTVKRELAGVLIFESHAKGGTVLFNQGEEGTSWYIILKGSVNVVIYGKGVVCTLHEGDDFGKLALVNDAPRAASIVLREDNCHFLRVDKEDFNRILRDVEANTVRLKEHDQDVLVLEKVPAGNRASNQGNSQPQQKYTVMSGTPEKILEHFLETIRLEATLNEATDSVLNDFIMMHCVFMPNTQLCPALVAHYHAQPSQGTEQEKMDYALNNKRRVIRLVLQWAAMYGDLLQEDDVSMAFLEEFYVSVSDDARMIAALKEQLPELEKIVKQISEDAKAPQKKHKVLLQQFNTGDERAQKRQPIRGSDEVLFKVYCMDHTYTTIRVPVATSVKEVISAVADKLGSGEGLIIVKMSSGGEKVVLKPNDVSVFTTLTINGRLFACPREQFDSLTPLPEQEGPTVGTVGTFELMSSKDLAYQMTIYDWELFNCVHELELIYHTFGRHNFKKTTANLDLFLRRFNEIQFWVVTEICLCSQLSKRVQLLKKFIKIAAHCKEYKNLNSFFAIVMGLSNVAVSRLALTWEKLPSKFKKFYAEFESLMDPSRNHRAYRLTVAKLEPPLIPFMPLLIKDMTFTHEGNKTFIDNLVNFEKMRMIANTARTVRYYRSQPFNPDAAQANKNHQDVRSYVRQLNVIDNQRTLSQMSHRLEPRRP
#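 Fluorescent exchange read-out: 100 nM EPAC2 with 250 nM RAP1B–BODIPY-GDP and 50 uM GDP; BODIPY-GDP release lowers fluorescence. Read at 480/540 nm every 5 min for 30 min at room temperature; normalized to 6.5 mM cAMP.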
# Numbers without * were called inactive; ? = inconclusive; & = joins results of further samples; [ ] = dose if it differs, or a comment. Potency is the fitted concentration of half-maximal effect. This is a subset. The share of hits here may be higher or lower than overall.
compound	EPAC2 antag
C[C@H](CCC(=O)O)[C@H]1CC[C@H]2[C@@H]3CC[C@@H]4C[C@H](O)CC[C@]4(C)[C@H]3C[C@H](O)[C@]12C	-13.0%
COc1ccccc1CNc1nc(-c2cccnc2)nc2ccccc12	-22.4%
CC(N)(Cc1ccc(O)cc1)C(=O)O (centres undefined)	-26.2%
OC[C@H]1OC([S-])[C@H](O)[C@@H](O)[C@@H]1O.[Au+] (some centres undefined)	-27.6%
COc1ccc(O)c(C(=O)N2CCC3(CC2)c2ccccc2[C@@H](NC(=O)c2ccccn2)[C@@H]3OC)c1	-16.2%
CC12CCC(C[N+](C)(CCC[N+](C)(C)C)C1)C2(C)C (centres undefined)	6.7%
CC[C@H](C)N(C)C(=O)c1cc2ccccc2c(-c2ccccc2Cl)n1	?
CN(C)c1ccc(/C=C/c2ccc3cc(N(C)C)ccc3n2)cc1	-13.0%
OCc1ccccc1O[C@@H]1O[C@H](CO)[C@@H](O)[C@H](O)[C@H]1O	-7.7%
COC(=O)Oc1ccccc1C(=O)O	-12.8%
O=C(O)c1cc(-c2ccc(-c3c(-c4ccc5c(c4)OCO5)noc3-c3ccsc3)cc2)nc2ccccc12	-9.5%
CN(C)c1nc2cc(Cl)ccc2cc1CN(Cc1ccc2c(c1)OCO2)C(=O)c1ccoc1	?
CS(=O)(=O)N1CCC2(CCN(C(=O)Nc3cccc(C#N)c3)CC2)CC1	-25.8%
CCC1CN(CC(=O)NC(C)c2c(C)nn(C)c2C)Cc2cc(OC)ccc2O1 (centres undefined)	-14.1%
Cc1ccc(-c2ccnc(-n3ncc(C(=O)N(C)CC4CCCN(C)C4)c3C)n2)o1 (centres undefined)	?
COc1ccccc1-c1cncnc1N(C)Cc1ccco1	-10.9%
CC(C)c1nc(C(=O)N2CCOc3ccc(CN4CCN(c5ccccn5)CC4)cc3C2)cs1	-21.6%
CCCCC[C@H](O)/C=C/C=C\C=C\C=C\[C@@H](O)[C@@H](O)CCCC(=O)O	-0.7%[1.17 µM]
NCCNCCNCCNCCN	-9.7%
O=C(c1cnn(-c2nccc(-c3ccccc3F)n2)c1C1CC1)N1CCCCC1c1cccnc1 (centres undefined)	-18.9%
N#Cc1ccc(CN2CCC3(CC2)CCN(C(=O)c2ccncc2)CC3)cc1	-7.0%
CCCCNc1cc(C(=O)O)cc(S(N)(=O)=O)c1Oc1ccccc1	-19.2%
COc1ccc2[nH]cc(CCNc3ncncc3-c3ccoc3)c2c1	-33.3%
COc1ccc2[nH]cc(CCNc3nc(-c4c(C)noc4C)nc4ccccc34)c2c1	-37.9%
C[N+]1(C)C2CC(OC(=O)[C@H](CO)c3ccccc3)CC1C1OC12 (some centres undefined)	-15.2%&-3.7%
Cn1cccc1C(=O)N1CCC2(CCCN(c3ccccn3)C2)CC1	-19.6%
Cn1cc(CNC2CCN(c3cccc(NC(=O)c4cccnc4)c3)CC2)cn1	-3.5%
CC1(C)CCC(NC(=O)[C@@H](N)CCC(=O)O)CC1	3.9%&4.3%
COc1ccc(C(=O)NCC2Cc3cccc(-c4cncnc4)c3O2)c(OC)c1OC (centres undefined)	-18.0%
CC(O)C(O)[C@H]1CNc2nc(N)[nH]c(=O)c2N1 (some centres undefined)	10.3%
COC(=O)c1c(C)cc(O)cc1O	-14.4%
CC(=O)NCCNc1nc(-c2cccc(NS(C)(=O)=O)c2)nc2ccccc12	-5.1%
COc1ccccc1CNc1cc(-c2ccoc2)ncn1	-12.3%
COc1cc(=O)n2c(c1C(=O)NCc1ccco1)CCN(Cc1cccc(C(F)(F)F)c1)CC2	-2.0%
O=C(O)CSCC(=O)NC1CCSC1=O (centres undefined)	-5.2%
CC(C)(C=O)Cc1cc(C(C)(C)C)c(O)c(C(C)(C)C)c1	?
CN(CC1COCCO1)C(=O)c1cnn(-c2ncc3c(n2)-c2ccccc2CC3)c1C1CC1 (centres undefined)	-21.5%
CCNc1ncc2nc(-c3cccc(C#N)c3)c(=O)n(Cc3cccc(OC)c3)c2n1	-22.7%
Cn1cccc1C(=O)N1CCC2(CC1)CN(C(=O)Nc1cccc(F)c1)C2	-22.7%
C[C@@]12CC[C@@H]3c4ccc(O)cc4C[C@H](CCCCCCCCCS(=O)CCCC(F)(F)C(F)(F)F)[C@H]3[C@@H]1CC[C@@H]2O (some centres undefined)	?
CC1(C)C(=O)N(CCN2CCC(C(=O)c3ccc(F)cc3)CC2)c2ccccc21	-8.6%
C[C@H](CSC(=O)c1ccccc1)C(=O)N1C[C@@H](Sc2ccccc2)C[C@H]1C(=O)O	5.3%
CCOC(=O)[C@H](N)/C=C(\C)CP(=O)(O)O	-14.6%
CC(C)C[C@@H](COc1ccccc1)N1CCN(Cc2ccccc2)CCC1=O	17.8µM*
COC(=O)[C@@H]1CCCN1Cc1ccc2c(c1)CN(Cc1cccc(Cl)c1)CCO2	-3.1%
C[N+]1(C)CCc2cc3c(cc2[C@@H]1[C@@H]1C(=O)Oc2c1ccc1c2OCO1)OCO3	?
Cn1cccc1C(=O)N1CCC2(CC1)CCN(C(c1ccccc1)c1ccccc1)CC2	-35.7%
CO[C@H]1[C@H](NC(=O)c2ccco2)c2ccccc2C12CCN(Cc1ccc3cccc(F)c3n1)CC2	-3.2%
O=C(c1ccc(N2CCC(NCCCn3ncc4ccccc43)CC2)cc1)N1CCOCC1	-10.3%
CN(C)Cc1ccccc1-c1nc(NCc2ccccc2)c2ccccc2n1	-10.6%
COCC(=O)Nc1cc(C(=O)N2CCN(c3ccc(Cl)cn3)CC2)c2c(c1)nc(C1CCC1)n2C	7.3%
CCN(CC)C(=O)N1CCN(C)CC1	-26.8%[56.6 µM]
Cc1cccc(CNc2cc(-c3cccc(NS(C)(=O)=O)c3)ncn2)c1	-16.9%
COc1ncc2nc(-c3cc(F)cc(F)c3)c(=O)n(C)c2n1	7.8%
COc1ccccc1N1CCN(CCn2c(=O)[nH]c3c([nH]c4ccccc43)c2=O)CC1	-8.5%&-8.3%&-26.8%
O=C(CCCN1CCC(n2c(=S)[nH]c3ccccc32)CC1)c1ccc(F)cc1	0.1%
c1ccc(C(c2ccccc2)N2CCC3(CCNCC3)CC2)cc1	-14.1%
COc1ccc(C2CC(=O)c3c(O)cc(O)cc3O2)cc1O (centres undefined)	-9.4%
CCCCCCCC/C=C\CCCCCCCC(=O)N[C@@H](CO)Cc1ccc(O)cc1	20µM*
O=C(Nc1cccc(F)c1)N1CC2(CCN(C(=O)c3ccco3)CC2)C1	?

# (continued)
compound	EPAC2 antag
COc1cccc(-c2cncnc2NCc2ccccc2OC)c1	?
Cc1cc(C)cc(CN2CCc3nnc(C(NS(C)(=O)=O)C(C)C)n3CC2)c1 (centres undefined)	-17.4%
Cc1ccc2nc(SCC(=O)N3CCOc4ccc(CN5C[C@@H](C)O[C@@H](C)C5)cc4C3)[nH]c2c1	-3.8%
O=C(OCc1ccccc1)c1ccccc1	?
NC(N)=[N+]1CCc2ccccc2C1	-27.0%
NC(=O)c1ccc2[nH]ccc2c1	?
O=C(c1cnn(-c2nccc(-c3ccco3)n2)c1C1CC1)N1CCCCC1c1cccnc1 (centres undefined)	0.3%
FC(F)(F)C(F)(F)C(F)(F)C(F)(F)C(F)(F)F	-2.4%
O=C1CCC(=O)N1CO	5.9%
CCNc1ncc2nc(-c3cc(F)cc(F)c3)c(=O)n(CCc3ccccc3)c2n1	31.7%[activator]
CC(=O)OCCNC(=O)c1cccnc1	-27.6%
O=C(O)c1nc2cc(Cl)c(Cl)cc2[nH]c1=O	-5.5%
CN(C)C(=O)c1ccc(-c2nccc(NCc3cccs3)n2)cc1	-7.3%
CC(=O)c1ccc[n+](CC(=O)c2ccc(F)cc2)c1	?
COC(=O)C1CCN(Cc2ccc3c(c2)CN(C(=O)c2cc(C)nc(C)n2)CCO3)CC1	-0.2%
CN(C)CCOC(=O)COc1ccc(Cl)cc1	-7.6%
CN(C)c1ccc(-c2cc(N(C)Cc3ccco3)ncn2)cc1	-32.0%
CCCN(CCC)C(=O)C(CCC(=O)OCCCN1CCN(CCOC(=O)Cc2c(C)n(C(=O)c3ccc(Cl)cc3)c3ccc(OC)cc23)CC1)NC(=O)c1ccccc1 (centres undefined)	31.2%[activator]
Fc1cccc(/C=N/N=C/c2cccc(F)c2)c1	-1.1%
CO/N=C1\CN(c2nc3c(cc2F)c(=O)c(C(=O)O)cn3C2CC2)CC1CN (centres undefined)	-25.0%
Cc1noc(C)c1C(=O)N1CCC2(CC1)CCN(c1cccc(-c3ccccc3)c1)CC2	-35.2%
Cc1cccc(CNc2nc(-c3ccc(C(=O)N(C)C)cc3)nc3ccccc23)c1	-13.8%
C=C1CC[C@@H]2O[C@@]2(C)CC[C@H]2[C@H]1CC2(C)C	-18.5%
COc1ccc(CN2Cc3cccc4c3[C@@H](CC2=O)[C@H](O)[C@H](O)C4)cc1	-35.8%
Cc1ccc(SC[C@H](C)CN2CC[C@H](C)CCC2=O)cc1	?
CS(=O)(=O)c1ccc(-c2cccc3c2OC(CNC(=O)c2cc(C4CC4)[nH]n2)C3)cc1 (centres undefined)	-0.3%
Cc1ncc2c(c1CNC(=O)c1cncs1)CCN(C(=O)c1cc(F)c(F)cc1F)C2	-27.9%
O=C1[C@H](Cc2ccccc2)NCCCC[C@H](c2ccc(Cl)cc2)N1Cc1ccc(Cl)cc1	-7.0%
CN(C)CC/C=C1/c2ccccc2CSc2ccccc21	-10.4%[56.6 µM]
CN1CC[C@@]2(CCCN(C(=O)c3cc(C(F)(F)F)cc(C(F)(F)F)c3)C2)C1	-23.5%
CCCCN1CCC(n2c(=O)[nH]c3ccccc32)CC1	2.1%
Cn1c(=O)c(-c2cc(F)cc(F)c2)nc2cnc(N3CCOCC3)nc21	1.6%
CC(C)CN(C[C@@H](O)[C@H](Cc1ccccc1)NC(=O)O[C@H]1CO[C@H]2OCC[C@H]21)S(=O)(=O)c1ccc(N)cc1	-4.6%
S=C(Nc1ccccc1)Nc1nccs1	-18.6%
CN1CCN(c2cc(-c3ccccc3C(F)(F)F)ncn2)CC1	-21.9%
COc1ccccc1CCn1c(=O)c(-c2cccs2)nc2cncnc21	3.7%
Cc1ncc2c(c1CNC(=O)c1ccc3c(c1)OCO3)CCN(C(=O)/C=C/c1ccccc1Cl)C2	-26.5%
OC(CN1CCC(Cc2ccc(F)cc2)CC1)c1ccc(Cl)cc1 (centres undefined)	16.2%&15.4%
Cn1c(=O)[nH]c(=O)c2[nH]cnc21	-22.7%
CSc1nc(N)c2ncn([C@H]3O[C@H](COP(=O)(O)OP(=O)(O)O)[C@@H](O)[C@@H]3O)c2n1	-1.6%
CSc1ncnc2c1ncn2C1OC(CO)C(O)C1O (centres undefined)	-11.0%
O=C(Nc1nccs1)[C@@H]1CC=C[C@@H]2CCN(Cc3ccc(Cl)c(Cl)c3)C(=O)[C@@H]21	-29.4%
CC(=O)/C=C\C1[C@]2(C)CCCC(C)(C)C2CC[C@@]1(C)O (some centres undefined)	-9.0%
N#C[C@H]1C[C@H]2C[C@@H]2N1C(=O)[C@@H](N)C12CC3CC(CC(O)(C3)C1)C2	23.5%
CC(C)CC1C(=O)N2CCCC2C2(O)O[C@@](NC(=O)C3C=C4c5cccc6[nH]c(Br)c(c56)CC4N(C)C3)(C(C)C)C(=O)N12 (some centres undefined)	-19.3%
CCC(C)[C@H]1COCCS(=O)(=O)N1Cc1ccccc1F (some centres undefined)	?
COC(=O)[C@H]1[C@H]2C[C@@H]3c4[nH]c5cc(OC)ccc5c4CCN3C[C@H]2C[C@@H](OC(=O)/C=C/c2cc(OC)c(OC)c(OC)c2)[C@@H]1OC	-22.7%[29.6 µM]
CSc1nc(C(=O)N2CCOc3ccc(CN4CCN(Cc5ccccn5)CC4)cc3C2)cs1	?

# Reformatted field by field: part of the list above
N#C[C@H]1C[C@H]2C[C@@H]2N1C(=O)[C@@H](N)C12CC3CC(CC(O)(C3)C1)C2
  EPAC2 antag: 23.5%

CC(C)CC1C(=O)N2CCCC2C2(O)O[C@@](NC(=O)C3C=C4c5cccc6[nH]c(Br)c(c56)CC4N(C)C3)(C(C)C)C(=O)N12 (some centres undefined)
  EPAC2 antag: -19.3%

CCC(C)[C@H]1COCCS(=O)(=O)N1Cc1ccccc1F (some centres undefined)
  EPAC2 antag: ?

COC(=O)[C@H]1[C@H]2C[C@@H]3c4[nH]c5cc(OC)ccc5c4CCN3C[C@H]2C[C@@H](OC(=O)/C=C/c2cc(OC)c(OC)c(OC)c2)[C@@H]1OC
  EPAC2 antag: -22.7%[29.6 µM]

# Remaining list, next part:
compound	EPAC2 antag
N#Cc1ccc(CN2CC3(CCN(C(=O)c4ccco4)CC3)C2)cc1	-29.8%
O=c1c(CCc2ccccc2)nc2cnc(N3CCNCC3)nc2n1Cc1ccc(F)cc1	-23.1%
CC(C)=CCOc1cc2oc(=O)ccc2cc1O	?
CC(=O)Nc1ccccc1-c1nc(CNC(=O)c2cccc(-n3cccn3)c2)c(C)o1	?
CC(C)COC(=O)OCN1C(=O)CN(CCN2CC(=O)N(COC(=O)OCC(C)C)C(=O)C2)CC1=O	-3.2%&17.1%
COc1ccc(C(=O)N2CCC[C@@]3(CCN(Cc4ccc(C#N)cc4)C3)C2)cc1	-18.6%
Cc1nc2cnc(N3CCN(C)CC3)nc2n(CCc2ccccc2)c1=O	-8.8%
CC(=O)N1CCC2(CC1)CCN(c1ccc(-c3ccccc3)cc1)CC2	?
Cc1noc(C)c1-c1nccc(N(C)C)n1	-19.2%
NC(N)=NCC1COc2ccccc2O1 (centres undefined)	1.7%
CC(C)(C)OC(=O)N(Cc1ccco1)S(=O)(=O)c1ccccc1Br	?

# From PubChem BioAssay
